HPGD inh: HPGD (human) dehydrogenase inhibition; P15428; purified HPGD, NADH fluorescence kinetic, PGE2 substrate; Potency, µM, without a hit: at the highest dose activity change, negative = inhibition, actives largely listed as inhibitors; 150,000 tested, 4.3% active; AID 894; active = well fitted inhibition curve with a large enough effect (not every such curve was filed as active); inconclusive = small, poorly fitted or top-dose-only effect, or another doubt; inactive = no such curve, though single readings can be large or run the other way;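 further: top concentration of the series not given in the record; plate controls included wells without enzyme; inactives centre near -10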
Target sequence (P15428 whole entry, looked up): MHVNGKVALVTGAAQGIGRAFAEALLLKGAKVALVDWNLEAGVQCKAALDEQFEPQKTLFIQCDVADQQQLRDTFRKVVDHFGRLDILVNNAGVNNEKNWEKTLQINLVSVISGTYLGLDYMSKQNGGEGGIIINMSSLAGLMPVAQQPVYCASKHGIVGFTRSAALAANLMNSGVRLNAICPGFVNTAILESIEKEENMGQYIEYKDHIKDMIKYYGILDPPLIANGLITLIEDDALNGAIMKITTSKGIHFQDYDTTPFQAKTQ
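20 nM HPGD preincubated 15 min at room temperature with compound in 50 mM Tris-HCl pH 8, 0.01% Tween 20. Started with 1 mM NAD+ and 30 uM prostaglandin E2; NADH fluorescence (360/450 nm) read 5 times over 30-s intervals, last minus first.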
* marks the source's active call; other numbers are inactive results; ? = inconclusive. On the % scale 0 is the no-effect control and ±100 the full control effect; potency means the concentration at half of the fitted maximal effect. The list is partial; count on the stated rates, not on these rows.

SMILES	HPGD inh
CC[C@@H](C)[C@H]1O[C@]2(CC[C@@H]1C)C[C@@H]1C[C@H](C/C=C(/C)[C@H](O[C@@H]3C[C@H](OC)[C@H](O[C@@H]4C[C@H](OC)[C@@H](O)[C@H](C)O4)[C@H](C)O3)[C@@H](C)/C=C\C=C3CO[C@@H]4[C@H](O)C(C)=C[C@@H](C(=O)O1)[C@]34O)O2 (tested in a mixture with another compound)	?
OC(Cn1cncn1)(c1ccccc1)c1ccccc1	-8.7%
CC(C)CCNC(=O)C1CCCN1C(=O)NC1CCCCC1 (stereo not given)	-18.5%
N#Cc1nc(COc2ccc(Br)cc2)oc1NCCCn1ccnc1	-3.5%
COc1ccc(Nc2nccc3c2nnn3C)cc1	-6.9%
Cc1nc(NC(C)c2ccccc2)c2oc3ccccc3c2n1 (stereo not given)	-26.3%
O=C1C2C3CC(C(Br)C3Br)C2C(=O)N1c1ccccn1 (stereo not given)	-0.6%
CCCc1cc(C(=O)Nc2cc(C)nn2-c2ccccc2)no1	2.8%
COc1ccc(N2CCN(C(=O)Cc3nn(C)c(=O)c4ccccc34)CC2)cc1	-23.7%
CCOC(=O)c1[nH]c(C)c(C(=O)N(C)Cc2ccccc2)c1C	-0.2%
CC(OC(=O)C1=COCCO1)C(=O)Nc1ccc(Oc2ccccc2)cc1 (stereo not given)	-11.3%
COc1ccc(NC(=O)CCC(=O)c2cccs2)cc1S(=O)(=O)Nc1ccc(Cl)cc1	-5.9%
Cc1cc(C)n(-c2ccc(C(=O)OCn3nnc4ccccc4c3=O)cc2)n1	-28.0%
O=C(Nc1nnc(COc2ccccc2)s1)c1ccco1	?
CCN(CC)CCNC(CC(=O)Nc1ccc(Cl)cc1Cl)C(=O)O (stereo not given)	6.1%
COc1ccc2oc(-c3ccc(C)c(NC(=O)CSc4ccc(Cl)cc4)c3)nc2c1	?
CCOc1ccccc1N(CC(=O)Nc1ccc(C)cc1)S(C)(=O)=O	-6.8%
Cc1[nH]nc(SCC(=O)N2CCCCC2)c1[N+](=O)[O-]	28.2µM*
Cc1cccc(OCCCC(=O)NC(C)C)c1	-13.7%
O=C(CN1CCN(CCC(=O)Nc2ccccc2F)CC1)Nc1ccc(Cl)cc1	-15.3%
NC(=O)C[C@H]1NC(=O)[C@H](CCC(=O)O)NC(=O)c2cc([N+](=O)[O-])cc(I)c2NCCC[C@@H](C(N)=O)NC1=O	-7.3%
O=C(NC1CCCC1)C(c1ccccn1)N(C(=O)c1csnn1)C1CC1 (stereo not given)	0.3%
CCCCOC(=O)Nc1ccc(S(=O)(=O)Nc2nc(C)cc(C)n2)cc1	0.3%
Cc1cc(-c2nnc(SCC(=O)c3ccc(F)cc3)o2)no1	-7.3%

Rewritten with bars between the fields: entries from further up
SMILES | HPGD inh
Cc1[nH]nc(SCC(=O)N2CCCCC2)c1[N+](=O)[O-] | 28.2µM*
Cc1cccc(OCCCC(=O)NC(C)C)c1 | -13.7%
O=C(CN1CCN(CCC(=O)Nc2ccccc2F)CC1)Nc1ccc(Cl)cc1 | -15.3%

Additional entries follow:
SMILES	HPGD inh
O=C(Nn1cnnc1)c1ccccc1-c1ccccc1	3.4%
COC(=O)C12CCC3(SCCS3)C(C(=O)OC)(CCC13SCCS3)C2	2.3%
CCOC(=O)/C=c1\s/c(=C\c2c(OC)ccc3ccccc23)c(=O)n1CC(=O)NCC1CCCO1 (stereo not given)	-14.8%
CC(=O)Nc1cccc(Oc2nc(C)cc(C)c2C#N)c1	-12.1%
O=C(CCn1cccc1)NCCc1ccc(Cl)cc1	-13.7%
CCN1C(=O)C(CC(=O)NCc2ccc(Cl)cc2)N(CC)C1=O (stereo not given)	-7.1%
COc1ccc(-n2nc(C(=O)O)c3ccccc3c2=O)cc1	-13.4%
CCOC(=O)N1CCN(S(=O)(=O)c2cc(-c3nn4c(C)nnc4c4ccccc34)ccc2C)CC1	?
CCCN=C1NC(=O)C(CC(=O)NCCc2ccc(OC)c(OC)c2)S1 (stereo not given)	-5.1%
Cc1[nH][nH]c(=O)c1C(c1c(C)[nH][nH]c1=O)c1cn(Cc2ccc(Cl)c(Cl)c2)c2ccccc12	-4.2%
Cc1oc(-c2ccc(Cl)cc2)[n+]([O-])c1C	1.4%
COc1ccc(NS(=O)(=O)c2cc(NC(=O)c3cnc(C)cn3)ccc2N2CCCCC2)cc1	-13.5%
COc1ccc(N2Cc3cccc(C(=O)N4CCN(C(=O)c5ccco5)CC4)c3C2=O)cc1	-13.9%
Cc1csc2nc(CSc3ccc(Cl)cc3)cn12	?
COc1cc2c(cc1OC)-c1cc(NC3CCCCCC3)nc(=O)n1CC2	?
COc1ccc(C(=O)NCc2cn3ccsc3n2)cc1OC	-10.6%
Cc1ccc(S(=O)(=O)NCC(=O)OCC(=O)c2ccc(Br)s2)cc1	-11.3%
Clc1ccccc1-c1nn2c(-c3ccccn3)nnc2s1	-28.7%
COC(=O)c1ccccc1NC1=C/C(=N\S(=O)(=O)c2cccs2)c2ccccc2C1=O	?
COC(=O)c1ccccc1OCCCN(C)C	1.3%
COc1cc(/C=C(\C#N)C(=O)NCC2CCCO2)c([N+](=O)[O-])cc1OC (stereo not given)	28.2µM*
CCC(=O)NC(Nc1sc2c(c1C(=O)OC)CCCC2)(C(F)(F)F)C(F)(F)F	3.6%
CCCCC(=O)/C=C/n1c(=S)oc2ccccc21	?
CC1CCN(C(=O)C2CCN(C(=O)c3cc4sccc4n3Cc3ccc(F)cc3)CC2)CC1	-3.0%
O=C(NCC(c1cccnc1)N1CCN(c2ccccc2F)CC1)c1cccc(Cl)c1 (stereo not given)	-7.9%
COc1cc(C)nc(Oc2ccc(OCCOc3ccc(C)cc3)nn2)n1	-21.1%
Cc1ccccc1OC(=O)C1C(c2ccccc2)C(C(=O)O)C1c1ccccc1 (stereo not given)	5.4%
O=c1c([N+](=O)[O-])c[nH]c2ccccc12	-18.4%
COC(=O)c1cc(Br)c(=O)n(-c2nccs2)c1	-19.7%
CCN(CC)CCCNC(=O)Cn1ncc2c(=O)oc3ccc(C)cc3c21	-1.8%
CCOC(=O)CC(NC(=O)C1c2ccccc2Oc2ccccc21)c1ccccc1Cl (stereo not given)	-8.9%
Cc1cccc(NC(=O)COC(=O)c2ccc3c(=O)n4c(nc3c2)CCC4)c1	-12.8%
CCOC(=O)N1CCN(C(=O)c2ccc3c(c2)sc2nc(-c4ccccc4)cn23)CC1	-20.9%
Cc1ccc(NC(=O)C(=O)NCc2ccc(/C=C(/C#N)C(=O)NCc3cccnc3)o2)cc1C	-29.4%
CCCSc1cc(NCCOC(=O)CCC)c([N+](=O)[O-])c2nonc12	-16.8%
COc1ccc(C(NC(=O)/C=C\c2ccco2)c2ccc(OC)c(OC)c2)cc1 (stereo not given)	-20.1%
CC(C)CC(=O)Nc1cc([N+](=O)[O-])ccc1Cl	-8.0%
COCC(=O)Nc1ccc(S(=O)(=O)Nc2cc(C)nc(C)n2)cc1	-2.9%
CC[n+]1c(/C=C2\C=C(C)CC(C)C2)sc2ccccc21 (stereo not given)	0.2%
Cc1ccc(C2=NNC(=O)C(c3ccc(Cl)cc3)C2)cc1 (stereo not given)	-12.2%
COc1cccc(C2C(C(N)=O)=C(C)Nc3nc(CCCO)nn32)c1OC (stereo not given)	-8.2%
O=C(c1ccccc1)N1CCCOC1c1ccccc1 (stereo not given)	-15.3%
Cc1occc1C(=O)NNC(=S)NCC(C)C	0.2%
O=C(CC1OC(=O)c2ccccc21)NC1CCCCC1 (stereo not given)	-11.0%
COc1cccc(NC(=O)Nc2ccc(Cc3ccncc3)cc2)c1	-12.9%
O=S1(=O)CCC(NCC2CCCO2)C1 (stereo not given)	-5.9%
O=C(c1cc2c(=O)oc3ccccc3c2s1)N1CCOCC1	-7.9%
NC(=O)c1sc2nc3c(c(-c4ccc(Cl)cc4)c2c1N)CCCC3	-14.3%
O=S(=O)(O)c1ccc2cc(N=Nc3cc(S(=O)(=O)O)c4cccnc4c3O)ccc2c1	-11.9%
CCN(CC)S(=O)(=O)c1cccc(NC(=O)COc2ccc(Cl)cc2Br)c1	-26.9%
Cc1ccc(-n2c(Cn3nc(C(F)(F)F)cc3C)n[nH]c2=S)cc1	?
CCN(CC)CCNC(=O)c1ccc(NC(=O)c2ccc(Cl)c(S(=O)(=O)Nc3ccccc3OC)c2)cc1	-6.9%
O=C(COC(=O)C1(c2ccccc2)CC1)N1CCN(c2ccc(F)cc2)CC1	-5.3%
CC(OC(=O)Cc1coc2ccc3ccccc3c12)C(=O)Nc1ncc(Cl)cc1Cl (stereo not given)	-10.9%
COc1cccc(C(=O)NC(=S)Nc2ccc([N+](=O)[O-])cc2C)c1	-5.9%
O=C(NCc1cccs1)C1CCN(c2nc3ccccc3o2)CC1	-7.3%
CC(=O)c1cccc2c(O)c(C3=Nc4ccccc4C3=O)[nH]c12	14.1µM*
CCCN(CCC)c1c([N+](=O)[O-])c(=O)oc2ccccc12	-19.7%
O=C(O)C1CCCCC1C(=O)Nc1cnn(Cc2ccccc2)c1 (stereo not given)	-7.8%
N#CC1=C(Nc2ccccc2)SC=C(c2ccc(F)cc2)N=C1N1CCOCC1	-7.1%

Additional records follow:
SMILES	HPGD inh
CC(C)(Cl)C1Cc2cc3ccc(=O)oc3cc2O1 (stereo not given)	?
COC(=O)c1sc(NC(=O)CSc2nnc(Cn3nnc4ccccc43)n2C)nc1C	-12.5%
Cc1oc2ccc(O)cc2c1C(=O)OC(C)C	-13.6%
COc1ccccc1CC(=O)Nc1ccc(-c2noc(COc3cccc(C)c3C)n2)cc1	-10.8%
O=C(NCc1cn2ccsc2n1)Nc1cccc(Cl)c1	-1.9%
C=CCn1c(SCc2csc(C)n2)nc2sc3c(c2c1=O)CCCCC3	-6.1%
COc1ccc(NC(=O)c2ccc(OC(F)F)cc2)cc1Cl	-11.9%
CC(=O)Nc1ccc(NC(=O)c2ccccc2N(C)S(C)(=O)=O)cc1	-5.5%
CN(C(=O)CC(NC(=O)c1ccccc1)(c1ccccc1)c1ccccc1)c1ccccc1	-2.9%
CC(=O)OCCNc1cc(SCc2ccco2)c2nonc2c1[N+](=O)[O-]	?
FC(F)(F)c1nnc2c(Sc3ccccc3)nc3ccccc3n12	-11.7%
O=C(NCc1ccccc1)c1cccc(NC(=O)c2ccco2)c1	-24.2%

Exported with each value named: two of the compounds above
FC(F)(F)c1nnc2c(Sc3ccccc3)nc3ccccc3n12
  HPGD inh: -11.7%

CC(C)(Cl)C1Cc2cc3ccc(=O)oc3cc2O1 (stereo not given)
  HPGD inh: ?

Following part.
SMILES	HPGD inh
O=C(c1ccccc1)N(CCN1CCOCC1)C1(C(=O)Nc2ccccc2)CCCCC1	-2.4%
CC(C)NC(=O)C(=O)NCCN1CCN(S(=O)(=O)c2ccc(Cl)cc2)CC1	-0.8%
Cc1nn(C)c(C(=O)N2CCc3ccccc32)c1Cl	-13.5%
Cc1cccc(C)c1-n1c(C)cc(/C=C2\NC(=O)NC2=O)c1C	?
CCOC(=O)c1sc(NC(=O)c2ccc(S(=O)(=O)N(C)C)cc2)cc1C	?
COCC(=O)N/N=C/c1ccc(Sc2nc3ccccc3s2)o1	-27.4%
COC(=O)c1cc(Br)c(=O)n(Cc2ccncc2)c1	-11.2%
CCCc1cc(=O)oc2cc(OCC(=O)N3CCc4ccccc43)ccc12	?
COc1ccc(C2N(C(=O)c3ccccc3)CCN2C(=O)c2ccc(C)cc2)cc1 (stereo not given)	-2.5%
Cc1cc(C(=O)N/N=C/c2ccc(O)c([N+](=O)[O-])c2)n[nH]1	-18.9%
CCOCC(=O)Nc1cc(C(=O)Nc2cccc(C)c2C)ccc1Cl	-9.3%
CCC(=O)n1nc(-c2ccccc2)nc1NCc1ccccc1	-2.9%

3 compounds from above, ordered by their value in HPGD inh, low to high:
compound | HPGD inh
COCC(=O)N/N=C/c1ccc(Sc2nc3ccccc3s2)o1 | -27.4%
CCOCC(=O)Nc1cc(C(=O)Nc2cccc(C)c2C)ccc1Cl | -9.3%
O=C(c1ccccc1)N(CCN1CCOCC1)C1(C(=O)Nc2ccccc2)CCCCC1 | -2.4%

Returning to the listing, repeating the two entries before the break.
SMILES	HPGD inh
CCOCC(=O)Nc1cc(C(=O)Nc2cccc(C)c2C)ccc1Cl	-9.3%
CCC(=O)n1nc(-c2ccccc2)nc1NCc1ccccc1	-2.9%
O=C(NCc1ccco1)c1ccccc1-c1ccc(C(F)(F)F)cc1	-1.5%
O=C(NCCCO)C(=O)NCCc1ccc(Cl)cc1	-11.8%
Cc1c(NC(=O)C(C)Sc2ccccc2)c(=O)n(-c2ccccc2)n1C (stereo not given)	-2.4%
CN1CCN(C(=O)Cn2c(C(F)(F)F)nc3ccccc32)CC1	-4.5%
CCN(CC)S(=O)(=O)c1cccc(C(=O)Nc2cc(C)nn2-c2ccccc2)c1	-14.1%
O=C(O)C1CC=CCC1C(=O)Nc1ccc(Oc2ccc(Cl)cc2)cc1 (stereo not given)	-10.5%
Cc1ccc(NC(=O)C(C)N2C(=O)C3CC=C(Cl)CC3C2=O)cc1 (stereo not given)	-12.0%
Cc1nc2ccccc2cc1C(=O)N/N=C/c1ccc([N+](=O)[O-])cc1	-5.9%
O=C(Nc1ccccc1)N1C2CCC1CC(O)(c1cccnc1)C2 (stereo not given)	-8.0%
COC(=O)c1nnn(-c2ccccc2)c1N	-16.6%
CCOc1ccccc1-c1ccc(C(=O)NCc2ccccc2)o1	?
Cc1ccc2[nH]c(=O)c(C3=NN(C(=O)CCC(=O)O)C(c4cccs4)C3)c(-c3ccccc3)c2c1 (stereo not given)	?
C[C@@](N)(C(=O)O)c1ccc(S(=O)(=O)O)cc1	-2.0%
OCCNc1nc2ccccc2n1-c1ccccc1	-5.1%
Cc1c(C(=O)O)sc(=S)n1-c1ccc(Cl)cc1	-12.2%
